# Assay outcomes (PubChem BioAssay)
# PKD1 inh – PKD1 (human) kinase inhibition | Q15139 | PKD1 kinase fluorescence polarization assay | AID 797 | 200,000 tested, 0.056% active | inhibition, %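 (about 10 µM by stock and volumes)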;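 active = inhibition of 50% or more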;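 also: controls were vehicle for no effect and a reference inhibitor for full effect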
# HSV augment – increases HSV replication in cells. HSV replication augmentation in cells, fold increase. maximum fold increase. 220,000 tested, 0.005% active;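 active = peak rise of 1.5-fold or more in the series; tested in PC3 cells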;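 also: first round at 10 µM; read as green reporter fluorescence; hits show the peak of a series up to 25 µM; 1 = signal of infected wells without compound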
# GALR2 ag – activates the human galanin receptor 2. AID 803. activation, %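 (tested at 5 µM)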. GALR2-expressing cells, agonist activation read-out. O43603. 140,000 tested, 0.48% active;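 active = above mean plus 3 SD of all compounds, about 5% in these data, not always enough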;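 also: 0% = vehicle buffer wells and 100% = reference agonist at full effect; tested in CHO reporter cells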
# Target sequence (O43603 whole entry, looked up): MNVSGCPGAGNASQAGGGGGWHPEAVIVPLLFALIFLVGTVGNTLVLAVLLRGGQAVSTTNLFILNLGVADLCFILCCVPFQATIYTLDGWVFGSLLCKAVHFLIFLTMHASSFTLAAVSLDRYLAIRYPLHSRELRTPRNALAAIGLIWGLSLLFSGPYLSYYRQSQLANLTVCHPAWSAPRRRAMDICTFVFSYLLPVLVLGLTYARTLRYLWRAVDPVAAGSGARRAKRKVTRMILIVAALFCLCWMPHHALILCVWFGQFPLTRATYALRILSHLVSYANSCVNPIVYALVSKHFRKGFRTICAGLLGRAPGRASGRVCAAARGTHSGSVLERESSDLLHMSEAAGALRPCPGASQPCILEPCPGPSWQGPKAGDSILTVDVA
# RGS16-Gao HTS – modulates binding between human RGS16 and Galphao; bead-based flow cytometry RGS16-Galphao binding, fluorescence; actives lie on both sides; 220,000 tested, 0.38% active; binding response (% of control), % at 10 µM;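 active = below 25% or above 175%, edge rows of some plates excepted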;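 also: Galphao activated by GDP with aluminum fluoride before binding; 100% = wells without compound and 0% = beads without RGS; some results beyond the cut were filed as inactive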
# INS promoter inh – TRM-6 insulin promoter activity inhibition; TRM-6 cells (human fetal islet line), insulin promoter-eGFP reporter, imaging; reporter expression induced with tamoxifen; inhibition, % at 2 µM; 130,000 tested, 0.9% active; AID 1273;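 active = inhibition above the mean plus 3 SD, with well images judged a real hit on visual review, cut at about 60% in these data, passing the limit was not always enough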
# INS promoter inh cell count – further read-out of INS promoter inh, marked with its call; normalized cell count, %; measured here: cell count, toxicity; reference of the scale not given here;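 cells exposed to compound for 48 h; stained nuclei by imaging scaled within each plate; lower means fewer cells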
# HSV augment primary fold – also measured in HSV augment; calls as there; fold increase; compound at 10 µM; measured here: primary screen fold increase 10 uM; tested in PC3 cells;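 GFP signal in the first replicate; 1 = infected wells without compound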
# An asterisk follows results filed as active; i = inactive; nt = no result given.
no. | smiles | PKD1 inh | HSV augment | HSV augment primary fold | GALR2 ag | RGS16-Gao HTS | INS promoter inh | INS promoter inh cell count
1 | CCOc1ccc(NC(=O)Nc2cc(C)on2)cc1 | -0.8 | i | 0.89 | -2.5 | 100.7 | -245.4 | 49.4
2 | CCOc1ccc(OCc2cccc(C(=O)N(CC)CC)c2)cc1 | 0.3 | i | 0.98 | nt | 98.7 | 5.3 | 124.6
3 | CCN(c1ccc(NC(=O)COC(=O)/C=C/c2cccs2)cc1)C(C)C | -7.9 | i | 1 | nt | 108.2 | -75.0 | 71.7
4 | Cc1ccc(S(=O)(=O)N(C)C)cc1-n1c(SCC(=O)Nc2ccc(F)c(F)c2F)nc2ccccc2c1=O | -0.2 | i | 0.99 | 1.0 | 101.3 | -16.1 | 121.4
5 | CN(C)Cc1cn(CCC(=O)O)c2ccccc12 | -2.9 | i | 0.86 | 0.1 | nt | -5.3 | 343.8
6 | O=S(=O)(NC1CCCC1)c1ccc(S(=O)(=O)N2CCc3ccccc32)cc1 | 6.0 | i | 1.2 | -0.6 | 74.4 | -75.0 | 78.2
7 | COc1ccc(Cl)cc1C(=O)Nc1ccc(N(C)C(C)=O)cc1 | -0.4 | i | 0.91 | -1.3 | 102.2 | -29.6 | 74.4
8 | CN(C)C(=S)Nc1ccc2ccccc2c1 | -3.2 | i | 1.11 | -2.7 | 105.9 | nt | nt
9 | CCCCCc1c(C)c(C#N)c2nc3ccccc3n2c1-n1ccnc1C | -2.8 | i | 0.93 | -0.7 | 104.4 | 54.5 | 81.7
10 | Nc1nc(SCc2c(F)cccc2Cl)[nH]c(=O)c1-c1ccccc1 | -4.9 | i | 0.96 | -1.3 | 323.2 | 3.3 | 78.4
11 | CC(=O)Nc1ccc(Oc2cc(C#N)c(C#N)cc2N2CCCCCC2)cc1 | 12.1 | i | 0.97 | -1.4 | 99.2 | -200.0 | 93.9
12 | COc1ccc(C(C[N+](=O)[O-])c2c(C)[nH]c3ccccc23)cc1OC (centres undefined) | -14.3 | i | 1.1 | -0.2 | 98.9 | nt | nt
13 | O=C(C1CC1)N1CCCC(c2ccc(Cl)cc2)=N1 | -5.5 | nt | nt | nt | 106.3 | -64.3 | 77.0
14 | CCOC(=O)CC1=NN(c2ccccc2)C(=O)/C1=C\c1ccc(N(C)C)cc1 | 0.0 | i | 0.95 | -0.8 | 101.8 | 10.3 | 72.9
15 | Cc1ccc(Cl)cc1NC(=O)c1ccc(NC(=O)CCC(=O)O)cc1 | 0.6 | i | 1.06 | 0.2 | 105.8 | -42.9 | 155.2
16 | CC1CCN(Cc2nc3c(c(=O)n(C)c(=O)n3C)n2CCCc2ccccc2)CC1 | -2.8 | i | 1.11 | -0.8 | 97.8 | -16.7 | 149.7
17 | O=C(Nc1cccc(NC(=O)c2cccs2)c1)c1cccnc1 | -4.1 | i | 0.98 | nt | 96.8 | nt | nt
18 | CCOC(=O)C1CCN(C(=O)c2cccc(NC(=O)C(CC)CC)c2)CC1 | -1.2 | i | 0.94 | -2.7 | 93.5 | 13.5 | 66.2
19 | COc1cccc(C2C(C(=O)Nc3nc4ccccc4s3)=C(C)NC3=C2C(=O)CC(C)(C)C3)c1OC (centres undefined) | -2.2 | i | 1.03 | 6.3 | 99.3 | nt | nt
20 | CCOC(=O)C(C(=O)OCC)C(C(=O)OCC)N1CCOCC1 (centres undefined) | -2.3 | i | 1.06 | -2.1 | 101.4 | -50.0 | 76.1
21 | CCN(c1ccc(OC)cc1)S(=O)(=O)c1ccc2c(c1)CCN2C(=O)CCC(=O)O | -4.2 | i | 1 | -1.1 | 90.5 | 0.0 | 91.5
22 | CCOc1ccccc1C(=O)N1CCCCC1C (centres undefined) | -2.1 | i | 0.82 | -0.9 | 98.5 | -16.2 | 78.9
23 | COc1ccc(N(CC(=O)Nc2c(C)n(C)n(-c3ccccc3)c2=O)S(=O)(=O)c2ccc(C)cc2)cc1 | -10.3 | i | 0.89 | nt | 100.2 | nt | nt
24 | Cc1cccc(Cc2nnc(CCC(=O)NCc3cn4ccccc4n3)o2)c1 | -2.1 | i | 1.05 | nt | 98.9 | nt | nt

# Some of these compounds in order of molar mass, descending:
no. | smiles | PKD1 inh | HSV augment | HSV augment primary fold | GALR2 ag | RGS16-Gao HTS | INS promoter inh | INS promoter inh cell count
23 | COc1ccc(N(CC(=O)Nc2c(C)n(C)n(-c3ccccc3)c2=O)S(=O)(=O)c2ccc(C)cc2)cc1 | -10.3 | i | 0.89 | nt | 100.2 | nt | nt
19 | COc1cccc(C2C(C(=O)Nc3nc4ccccc4s3)=C(C)NC3=C2C(=O)CC(C)(C)C3)c1OC (centres undefined) | -2.2 | i | 1.03 | 6.3 | 99.3 | nt | nt
21 | CCN(c1ccc(OC)cc1)S(=O)(=O)c1ccc2c(c1)CCN2C(=O)CCC(=O)O | -4.2 | i | 1 | -1.1 | 90.5 | 0.0 | 91.5
16 | CC1CCN(Cc2nc3c(c(=O)n(C)c(=O)n3C)n2CCCc2ccccc2)CC1 | -2.8 | i | 1.11 | -0.8 | 97.8 | -16.7 | 149.7
6 | O=S(=O)(NC1CCCC1)c1ccc(S(=O)(=O)N2CCc3ccccc32)cc1 | 6.0 | i | 1.2 | -0.6 | 74.4 | -75.0 | 78.2
14 | CCOC(=O)CC1=NN(c2ccccc2)C(=O)/C1=C\c1ccc(N(C)C)cc1 | 0.0 | i | 0.95 | -0.8 | 101.8 | 10.3 | 72.9
24 | Cc1cccc(Cc2nnc(CCC(=O)NCc3cn4ccccc4n3)o2)c1 | -2.1 | i | 1.05 | nt | 98.9 | nt | nt
18 | CCOC(=O)C1CCN(C(=O)c2cccc(NC(=O)C(CC)CC)c2)CC1 | -1.2 | i | 0.94 | -2.7 | 93.5 | 13.5 | 66.2
10 | Nc1nc(SCc2c(F)cccc2Cl)[nH]c(=O)c1-c1ccccc1 | -4.9 | i | 0.96 | -1.3 | 323.2 | 3.3 | 78.4
15 | Cc1ccc(Cl)cc1NC(=O)c1ccc(NC(=O)CCC(=O)O)cc1 | 0.6 | i | 1.06 | 0.2 | 105.8 | -42.9 | 155.2
9 | CCCCCc1c(C)c(C#N)c2nc3ccccc3n2c1-n1ccnc1C | -2.8 | i | 0.93 | -0.7 | 104.4 | 54.5 | 81.7
12 | COc1ccc(C(C[N+](=O)[O-])c2c(C)[nH]c3ccccc23)cc1OC (centres undefined) | -14.3 | i | 1.1 | -0.2 | 98.9 | nt | nt
20 | CCOC(=O)C(C(=O)OCC)C(C(=O)OCC)N1CCOCC1 (centres undefined) | -2.3 | i | 1.06 | -2.1 | 101.4 | -50.0 | 76.1
17 | O=C(Nc1cccc(NC(=O)c2cccs2)c1)c1cccnc1 | -4.1 | i | 0.98 | nt | 96.8 | nt | nt
13 | O=C(C1CC1)N1CCCC(c2ccc(Cl)cc2)=N1 | -5.5 | nt | nt | nt | 106.3 | -64.3 | 77.0
8 | CN(C)C(=S)Nc1ccc2ccccc2c1 | -3.2 | i | 1.11 | -2.7 | 105.9 | nt | nt

# Other entries follow.
no. | smiles | PKD1 inh | HSV augment | HSV augment primary fold | GALR2 ag | RGS16-Gao HTS | INS promoter inh | INS promoter inh cell count
25 | Cc1ccc(-c2ccc(=O)n(CC(=O)NCCCN3CCCCC3C)n2)cc1 (centres undefined) | -5.4 | i | 0.88 | -2.2 | 102.9 | 44.0 | 157.1
26 | Cc1cccc(CSc2ccc3nnc(-c4cccnc4)n3n2)c1 | -2.3 | i | 0.97 | 0.8 | 104.2 | -18.8 | 124.3
27 | CCOc1ccc(N(CC(=O)N/N=C/c2cccnc2)S(C)(=O)=O)cc1 | -3.7 | i | 0.92 | nt | 112.4 | 35.3 | 124.1
28 | COc1ccccc1NC(=O)Cc1csc(N)n1 | -3.1 | i | 1.05 | -1.3 | 100.3 | -45.5 | 67.1
29 | CCC1CC(C)(C(=O)Nc2ccc(S(N)(=O)=O)cc2)OC1=O (centres undefined) | -2.8 | nt | nt | -4.0 | 101.7 | nt | nt
30 | Cc1ccc(C)c(/C(O)=C2/C(=O)C(=O)N(CCN3CCOCC3)C2c2ccc(C)o2)c1 (centres undefined) | -8.6 | i | 1.01 | -1.0 | 84.8 | nt | nt
31 | COC(=O)C1CCN(C(=O)C23CCC(C)(C(=O)O2)C3(C)C)CC1 (centres undefined) | -8.1 | i | 0.94 | -0.3 | 101.3 | nt | nt
32 | CCOC(=O)C1CCCN(S(=O)(=O)c2c(C)c(C)cc(C)c2C)C1 (centres undefined) | -3.6 | i | 1.01 | -0.5 | 101.0 | -28.9 | 141.6
33 | COc1ccc(OC)c(NC(=O)c2nc3ccccc3s2)c1 | -0.8 | i | 1.13 | nt | 100.2 | nt | nt
34 | COc1cc(/C=N/Nc2ncc(C(F)(F)F)cc2Cl)cc(OC)c1OC | 0.0 | i | 0.93 | -0.5 | 103.8 | nt | nt
35 | COc1ccccc1CNC(=O)c1cc(=O)c2ccccc2o1 | 4.2 | i | 0.94 | nt | 102.0 | nt | nt
36 | CCN1CCN(c2nc(Nc3ccc(NC(C)=O)cc3)nc(Nc3ccc(NC(C)=O)cc3)n2)CC1 | nt | i | 0.86 | nt | 104.0 | nt | nt

# Next part.
# Short keys: A = PKD1 inh; B = HSV augment; C = HSV augment primary fold; D = GALR2 ag; E = RGS16-Gao HTS; F = INS promoter inh; G = INS promoter inh cell count
37. CCCNC(=O)OC[C@H]1O[C@H](CCO/N=C(\C)CCN2CCc3nc(-c4ccccc4)c(-c4ccccc4)cc3C2)C=C[C@@H]1Oc1ccc(OC)cc1
  A: -6.3	B: nt	C: nt	D: -0.2	E: 104.5	F: 5.0	G: 117.7

38. Cc1n[nH]c(=O)nc1NCc1ccccc1
  A: 19.8	B: i	C: 0.97	D: -0.1	E: 100.0	F: -21.4	G: 96.7

39. CCCC(=O)Nc1cc(-c2nn(C)c(=O)c3ccccc23)ccc1OC
  A: -11.4	B: i	C: 1.02	D: 0.5	E: 93.9	F: 36.4	G: 97.3

40. CCC(C)(C)NC(=O)C(c1ccc(C)cc1)N(Cc1cccs1)C(=O)c1ccc2c(c1)OCCO2 (centres undefined)
  A: 1.3	B: nt	C: nt	D: 6.6	E: 89.6	F: -33.3	G: 125.4
